HSD17B inh: blocks hydroxysteroid 17-beta dehydrogenase activity; Q99714; recombinant HSD17B10, NADH fluorescence kinetic; many of its hits are not listed in these tables; Potency, µM (doses to about 57.1 µM), inactives show at the top dose activity change, negative = inhibition, most hits filed as inhibitors; actives 7.6% (n = 75,000); AID 893; active means well fitted inhibition curve with a large enough effect; inconclusive means small, poorly fitted or top-dose-only effect; inactive means no such curve, though single readings can be large or run the other way;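 further: the protocol describes HADH2 (HSD17B10) and not the HSD17B4 of the title; nearly all actives have a fitted effect of over 70% in size; most hits overshoot -100% by far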
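20 nM HADH2, pH 9.0 Tris/Tween; cpd preinc 15 min RT; start w/ 1 mM NAD+ + 90 uM b-hydroxybutyryl-CoA; kinetic fluor ex360/em450 q30s x 4 min; delta last-first.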
* hit, by the source's call; & = joins results of further samples; [ ] = another dose, or the depositor's remark. On the % scale 0 is the no-effect control and ±100 the full control effect; potency means the concentration at half of the fitted maximal effect. The list is partial; rates above refer to the full screens.

Start of the listing, in advance:
What do the screens show for `CCC(c1nnnn1CCc1ccccc1)N1CCN(c2ccc(OC)cc2)CC1` (centres undefined)?
HSD17B inh: -7%

Results for CCS(=O)(=O)n1nc(-c2ccccc2)nc1NCc1ccco1 ?
HSD17B inh: 5%

All compounds of this part, repeating the preview:
What do the screens show for `CCC(c1nnnn1CCc1ccccc1)N1CCN(c2ccc(OC)cc2)CC1` (centres undefined)?
HSD17B inh: -7%

Results for CCS(=O)(=O)n1nc(-c2ccccc2)nc1NCc1ccco1 ?
HSD17B inh: 5%

What do the screens show for `Cc1cc(C(F)F)n2nc(C(=O)Nc3ccc(S(=O)(=O)N4CCCCCC4)cc3)nc2n1`?
HSD17B inh: 88%[activator]

How did OC[C@H](CCc1c[nH]c2ccccc12)c1c[nH]c2ccccc12 do in these assays?
HSD17B inh: inconclusive

What do the screens show for `O=C(NC1CCCC1)C(c1cccs1)N(CC1CCCO1)C(=O)Cc1cccs1` (centres undefined)?
HSD17B inh: -9%

What do the screens show for `COc1cc(OC)c(C2SCCN2S(=O)(=O)c2ccc(F)cc2)cc1OC` (centres undefined)?
HSD17B inh: -5%

Results for O=C(Nc1ccc(Cl)c(C(F)(F)F)c1)N1CCCC(O)C1 (centres undefined) ?
HSD17B inh: 0%

What do the screens show for `O=C(NC(=O)N1CCN(c2ccccc2F)CC1)c1ccccc1`?
HSD17B inh: 1%

Results for COc1ccccc1O ?
HSD17B inh: 4%&1%&7%

What do the screens show for `CCN1CCN(c2cc(C)c3cc(NC(=O)c4ccncc4)ccc3n2)CC1`?
HSD17B inh: -22%

What do the screens show for `O=C(CSc1nnc(CN2CCOCC2)n1-c1ccc(Cl)cc1)N1CCc2ccccc21`?
HSD17B inh: inconclusive

What do the screens show for `Cc1noc(C)c1C(=O)N1CCc2ccccc21`?
HSD17B inh: 18%

What do the screens show for `CN1CCN(S(=O)(=O)c2ccc(NC(=O)c3csc4ccccc34)cc2)CC1`?
HSD17B inh: -14%

What do the screens show for `NC(=O)c1c(NC(=O)CSc2nnc(-c3ccco3)n2-c2ccccc2)sc2c1CCC2`?
HSD17B inh: 25µM*

What do the screens show for `C[N+](C)(C)CCCCCNCC12CC3CC(CC(C3)C1)C2`?
HSD17B inh: 4%

Five consecutive entries out of the list so far, for reference:
Results for CCS(=O)(=O)n1nc(-c2ccccc2)nc1NCc1ccco1 ?
HSD17B inh: 5%

What do the screens show for `Cc1cc(C(F)F)n2nc(C(=O)Nc3ccc(S(=O)(=O)N4CCCCCC4)cc3)nc2n1`?
HSD17B inh: 88%[activator]

How did OC[C@H](CCc1c[nH]c2ccccc12)c1c[nH]c2ccccc12 do in these assays?
HSD17B inh: inconclusive

What do the screens show for `O=C(NC1CCCC1)C(c1cccs1)N(CC1CCCO1)C(=O)Cc1cccs1` (centres undefined)?
HSD17B inh: -9%

What do the screens show for `COc1cc(OC)c(C2SCCN2S(=O)(=O)c2ccc(F)cc2)cc1OC` (centres undefined)?
HSD17B inh: -5%

Next entries follow.
Results for Cc1nn(-c2ccccc2)c2c1C1(C(=O)N(C(C)C)c3ccccc31)C(C#N)=C(N)O2 (centres undefined) ?
HSD17B inh: -24%

How did O=C(Cn1cccc1)N1CCN(c2ccc(F)cc2)CC1 do in these assays?
HSD17B inh: -10%

How did Cc1nn(-c2ccc(F)cc2)c(C)c1NS(=O)(=O)c1ccc(Cl)cc1 do in these assays?
HSD17B inh: -19%

What do the screens show for `O=C(c1ccc2c(c1)OCO2)N(c1ccc(Cl)cc1)C1C=CS(=O)(=O)C1` (centres undefined)?
HSD17B inh: -1%

What do the screens show for `CCc1ccc(OCC(=O)N(C)C)c(Br)c1`?
HSD17B inh: 9%

What do the screens show for `C=CCn1c(SCCCC)nc(O)cc1=O`?
HSD17B inh: -5%

What do the screens show for `Cc1cc(Nc2ccc(C)c(C)c2)n2nc(C)nc2n1`?
HSD17B inh: 4%

How did CC(c1ccco1)N(C(=O)Nc1ccc(Cl)cc1)c1ccccn1 (centres undefined) do in these assays?
HSD17B inh: 2%

Results for CCOc1ccc(N2C(=O)CC(N3CCN(C(=O)c4ccco4)CC3)C2=O)cc1 (centres undefined) ?
HSD17B inh: -1%

What do the screens show for `O=C(Cn1nnc(-c2ccccc2)n1)NCc1cccs1`?
HSD17B inh: -1%

What do the screens show for `CCOC(=O)C1=C(C)NC(=O)NC1c1ccc(OC)c(CN2CCOCC2)c1` (centres undefined)?
HSD17B inh: 2%

How did COc1c2ccoc2nc2c(OC)c(OCC(O)C(C)(C)O)ccc12 (centres undefined) do in these assays?
HSD17B inh: 20µM*

How did CC(=O)N1CCc2cc(S(=O)(=O)NCCCN3CCN(Cc4ccccc4)CC3)ccc21 do in these assays?
HSD17B inh: -2%

How did O=C(CN1C(=O)c2ccccc2S1(=O)=O)NC1CC2CCC1C2 (centres undefined) do in these assays?
HSD17B inh: -9%

What do the screens show for `Cc1ccc(-c2nnc(Nc3ccccc3)o2)cc1`?
HSD17B inh: -11%

What do the screens show for `COc1ccc(S(=O)(=O)Nc2ccc3c(c2)COC3=O)cc1OC`?
HSD17B inh: 0%

What do the screens show for `O=C(Cn1c(-c2ccccc2)noc1=O)Nc1ccc(S(=O)(=O)N2CCOCC2)cc1`?
HSD17B inh: 1%

Results for N#Cc1nc(COc2ccccc2)oc1NCCN1CCOCC1 ?
HSD17B inh: -3%

Results for CCOC(=O)C1CCCN(c2ncnc3c2cnn3-c2ccc(OC)cc2)C1 (centres undefined) ?
HSD17B inh: inconclusive

How did CCc1nc(NCc2ccccn2)c2oc3ccccc3c2n1 do in these assays?
HSD17B inh: -12%

Results for O=C(NCc1ccc2c(c1)OCO2)C1CCCN1C(=O)Nc1cccc(Cl)c1 (centres undefined) ?
HSD17B inh: 1%

What do the screens show for `CC1CCN(C(=O)CSc2nc3cccnc3n2C)CC1`?
HSD17B inh: -4%

What do the screens show for `COc1ccc2nc(Nc3nc(C)c(CCC(C)C)c(=O)[nH]3)nc(C)c2c1`?
HSD17B inh: -10%

Results for CCOC(=O)C1=C(C)NC(=O)C(C(N)=O)C1c1ccccc1 (centres undefined) ?
HSD17B inh: 9%

How did CC1(C)NC(=O)N(CCCOc2ccc3c(c2)CCC3)C1=O do in these assays?
HSD17B inh: 12%

What do the screens show for `Cc1ccc(NC(=O)N2CCC(C(N)=O)CC2)cc1`?
HSD17B inh: 3%

What do the screens show for `CCCCc1ccc(-c2ccc(C)cc2O)nc1`?
HSD17B inh: 0%

Results for CCOCCCNC(=O)CS(=O)(=O)Cc1nc(-c2cccc(OC)c2)oc1C ?
HSD17B inh: 0%

What do the screens show for `Cc1ccc(S(=O)(=O)NC(=O)Nc2c(C)n(C)n(-c3ccccc3)c2=O)cc1`?
HSD17B inh: 6%

What do the screens show for `COc1ccc2c(c1)[nH]c1c(=O)n(CCN3CCCC3)cnc12`?
HSD17B inh: 16%

How did CN[C@@H](CC(C)C)C(=O)N[C@@H]1C(=O)N[C@H](CC(N)=O)C(=O)N[C@H]2C(=O)N[C@H]3C(=O)N[C@H](C(=O)N[C@H](C(=O)O)c4cc(O)cc(O)c4-c4cc3ccc4O)[C@H](O)c3ccc(c(Cl)c3)Oc3cc2cc(c3O[C@@H]2O[C@@H](CO)[C@@H](O)[C@@H](O)[C@H]2O[C@H]2C[C@](C)(N)[C@H](O)[C@H](C)O2)Oc2ccc(cc2Cl)[C@@H]1O do in these assays?
HSD17B inh: 8%

How did COc1ccc(-c2nn3c(-c4ccc(F)cc4)nnc3s2)cc1 do in these assays?
HSD17B inh: inconclusive

How did COc1cc2c(cc1OC)C1C(=O)c3c(cc4c(c3O)C=CC(C)(C)O4)OC1CO2 (centres undefined) do in these assays?
HSD17B inh: -12%

Results for Cn1cnnc1SCC(=O)c1c[nH]c2ccccc12 ?
HSD17B inh: 1%

Results for COc1ccc(CN2CCCCC2C)c(C)c1C (centres undefined) ?
HSD17B inh: 9%

What do the screens show for `O=C(COC(=O)c1cccc(NC(=O)c2ccco2)c1)c1ccc(Br)cc1`?
HSD17B inh: -18%

How did NCC[C@H]1CCC[C@H](CCN)N1 do in these assays?
HSD17B inh: -4%

Results for CCOCCCN(C(=O)c1ccco1)C(C(=O)NC1CCCC1)c1cccc(OC)c1OC (centres undefined) ?
HSD17B inh: 3%

What do the screens show for `CC(NC(=O)c1ccco1)C(=O)Nc1nc(-c2ccccn2)cs1` (centres undefined)?
HSD17B inh: 1%

How did O=C1C(=O)N(CCCn2ccnc2)C(c2cccnc2)/C1=C(/O)c1ccccc1 (centres undefined) do in these assays?
HSD17B inh: 3%

Results for Cn1c(=O)c2c(nc(Oc3ccc(-c4ccccc4)cc3)n2C)n(C)c1=O ?
HSD17B inh: 10%

Results for COCCCN1C(=O)C(=O)/C(=C(/O)c2ccccc2)C1c1ccc(N(C)C)cc1 (centres undefined) ?
HSD17B inh: 7%

How did O=C(CSCc1ccc(Br)cc1)N1CCOCC1 do in these assays?
HSD17B inh: -3%

Results for COc1nc(OC)nc(N2CCC(C(=O)NCc3cccs3)CC2)n1 ?
HSD17B inh: 15%

What do the screens show for `O=S(=O)(NCCc1ccccn1)c1ccc(F)c(F)c1`?
HSD17B inh: 4%

How did O=C(CON1C(=O)c2ccccc2C1=O)c1ccccc1 do in these assays?
HSD17B inh: -6%[11.4 µM]

How did O=C(CSc1nnc2scc(-c3ccccc3)n12)NCC1CCCO1 (centres undefined) do in these assays?
HSD17B inh: -11%

What do the screens show for `CC(C)=C1C2C=CC1C1C(=O)N(c3ccc4c(c3)OCO4)C(=O)C21` (centres undefined)?
HSD17B inh: 1%

What do the screens show for `CC(C)OC(=O)CSc1nnc(-c2ccc(Cl)cc2Cl)o1`?
HSD17B inh: 0%

How did CCCCCn1c(SCCc2ccccc2)nc2c1c(=O)[nH]c(=O)n2C do in these assays?
HSD17B inh: 0%

Results for CC(=O)c1sc(Nc2nc3ccc(F)cc3s2)nc1C ?
HSD17B inh: -14%

What do the screens show for `O=C1CC(Nc2ccc(N3CCOCC3)cc2)C(=O)N1Cc1ccccc1` (centres undefined)?
HSD17B inh: -3%

How did CC(=O)Nc1cccc(-c2nnc3n2CC(C)S3)c1 (centres undefined) do in these assays?
HSD17B inh: 4%

Results for O=C(CC(c1ccccc1)c1ccccc1)Nc1ncn[nH]1 ?
HSD17B inh: 7%

What do the screens show for `OC(c1cccc(OCc2ccccc2)c1)c1nnc(-c2ccccc2)o1` (centres undefined)?
HSD17B inh: 3%

How did CCn1cc(C(=O)N2CCCC2)c(=O)c2cc(S(=O)(=O)N3CCOCC3)ccc21 do in these assays?
HSD17B inh: -11%

What do the screens show for `COc1cc2c(=O)n(Cc3ccccc3)c(=O)n(CC(=O)NCc3ccco3)c2cc1OC`?
HSD17B inh: 20µM*

What do the screens show for `Cc1onc(-c2c(F)cccc2Cl)c1C(=O)NCCCN1CCOCC1`?
HSD17B inh: 4%

Results for Nc1c2c(nc3ccccc13)CCC2 ?
HSD17B inh: 32µM*

Results for Cc1sc2ncn(CC(=O)NCCCC(=O)N3CCN(c4ccccn4)CC3)c(=O)c2c1C ?
HSD17B inh: -10%

Results for CCOC(=O)c1nnsc1NC(C)=O ?
HSD17B inh: 1%

What do the screens show for `CCCCC(=O)Nc1ccc(Br)cc1C(=O)O`?
HSD17B inh: 14%

How did Cc1cc(C)cc(N(CC(=O)N2CCN(Cc3ccccc3)CC2)S(=O)(=O)c2c(C)noc2C)c1 do in these assays?
HSD17B inh: 15%

How did CCOC(=O)N1CCN(c2c(N3CCc4ccccc43)c(=O)c2=O)CC1 do in these assays?
HSD17B inh: -5%

How did COc1ccc(OC)c(C(c2nnnn2Cc2ccccc2)N2CCC(C(N)=O)CC2)c1 (centres undefined) do in these assays?
HSD17B inh: 3%

How did CC(C)(C)c1ccc(OC2C(O)COC2/C=C/C#Cc2ccccc2)cc1 (centres undefined) do in these assays?
HSD17B inh: -3%&-15%[11.4 µM]

Results for Cc1ccc(N(C(=O)c2cccs2)C2C=CS(=O)(=O)C2)cc1 (centres undefined) ?
HSD17B inh: 6%

What do the screens show for `COc1ccc(N(CC(=O)Nc2cc(Cl)ccc2OC)S(=O)(=O)c2c(C)noc2C)cc1`?
HSD17B inh: -4%

How did CCOC(=O)Nc1ccc(S(=O)(=O)Nc2nccc(C)n2)cc1 do in these assays?
HSD17B inh: 6%

Results for CCOC(=O)C1=C(C)NC(=O)NC1c1cccc(O)c1 (centres undefined) ?
HSD17B inh: 1%

How did CCc1ccccc1N(C(=O)CCC(=O)Nc1cc(C)on1)C(C(=O)NC1CCCC1)c1ccco1 (centres undefined) do in these assays?
HSD17B inh: -1%

How did COc1cccc(NC(=O)c2ccc(CN3CCOCC3)cc2)c1 do in these assays?
HSD17B inh: 5%

Results for CCOC(=O)COc1cccc2c(=O)n(CC(=O)N3CCc4ccccc43)ccc12 ?
HSD17B inh: 5%

How did CO/N=C(\C)CCN1CCc2nc(-c3ccccc3)c(-c3ccccc3)cc2C1 do in these assays?
HSD17B inh: -5%[11.4 µM]

How did CCCCCCC#CC1C=CC(OC(C)=O)C(COC(C)=O)O1 (centres undefined) do in these assays?
HSD17B inh: -8%[11.4 µM]

What do the screens show for `CCN1C(=O)c2cccc3c(NS(=O)(=O)c4ccc(NC(C)=O)cc4)ccc1c23`?
HSD17B inh: 6%

Results for CN(C)c1ccc(-c2nc(Nc3ccncc3)c3ccccc3n2)cc1 ?
HSD17B inh: 7%

What do the screens show for `Cc1nc(COC(=O)c2c(C)nn(-c3ccccc3)c2C)cs1`?
HSD17B inh: 3%

Results for Cc1ccc2oc(=O)c3cc(C(=O)NCCN4CCN(C)CC4)sc3c2c1 ?
HSD17B inh: 25µM*

What do the screens show for `CCOc1ccc2nc(N)sc2c1`?
HSD17B inh: 1%

How did CCn1ncc(Br)c1C(=O)Nc1ccc(Cl)cn1 do in these assays?
HSD17B inh: -9%

High-throughput results (PubChem)
